PINK1 expr mod: changes PINK1 expression | PINK1 immunofluorescence, high-content cytometry, 24 h | Potency, µM (series often up to 76.6 µM), inactives show at the top dose activation (PINK1 increase), hits mostly activators | 0.2% of 410,000 active | AID 624263; active = well fitted activation curve with a large enough effect; inconclusive = small, poorly fitted or top-dose-only effect; inactive = flat fitted curve, though single readings scatter; cell line not stated here;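 also: potency is read from the fitted curve at half-maximal effect; % of control where 0% means no effect; nearly all actives have a fitted effect of over 65% in size; a mitochondrial uncoupler was the plate control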
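Measures PINK1 amount and localization on or inside mitochondria by immunofluorescence. Stable cells get compounds at 5 concentrations for 24 hours before fixation and staining; CCCP controls included.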
Six1-Eya2 inh: blocks human Six1 binding to Eya2; AlphaScreen GST-Six1/His-Eya2 binding, biochemical; active compounds read low; control for the full effect not named in the record; activity change, % (no concentration beside the values); 0.56% of 360,000 active; AID 651725; in the data active = activity change below about -65%; inconclusive = about -30% to -65%; inactive = above about -30%; also: % is scaled to controls: 0 for no effect and ±100 for the full control effect
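AlphaScreen luminescence read after one hour at 37 °C in darkness. Pin-transferred compounds met GST-Six1 and His-Eya2 protein (5X stock 250 nM/500 nM) plus glutathione donor and Ni-chelate acceptor beads (5X, 50 ug/mL).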
D2 ag: activates the human D2 dopamine receptor | P14416 | DiscoveRx PathHunter D2 beta-arrestin, luminescence, 90 min; 100% = 57 uM dopamine signal | activation, % (concentration not given with the values) | 0.084% of 360,000 active | AID 624465; in the data active = activation above about 40%; inconclusive = about 15% to 40%; inactive = below about 15%; also: compound concentration not given in the record; the text of the record calls up to 30% inactive
Target sequence (P14416 whole entry, looked up): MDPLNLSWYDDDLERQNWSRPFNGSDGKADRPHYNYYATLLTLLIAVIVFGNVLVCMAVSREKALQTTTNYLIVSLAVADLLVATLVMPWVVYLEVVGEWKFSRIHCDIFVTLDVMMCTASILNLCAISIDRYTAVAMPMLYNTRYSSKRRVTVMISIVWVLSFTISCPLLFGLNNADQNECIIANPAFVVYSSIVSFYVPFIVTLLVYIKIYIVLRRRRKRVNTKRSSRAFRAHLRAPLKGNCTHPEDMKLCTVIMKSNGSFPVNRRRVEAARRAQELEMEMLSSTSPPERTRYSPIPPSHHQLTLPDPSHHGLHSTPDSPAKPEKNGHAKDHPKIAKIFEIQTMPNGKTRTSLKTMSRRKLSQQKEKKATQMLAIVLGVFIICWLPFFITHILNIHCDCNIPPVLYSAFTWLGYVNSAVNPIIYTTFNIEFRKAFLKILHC
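DiscoveRx PathHunter D2 beta-arrestin cells (2,100/well) attached overnight, then compound-stimulated 90 min at 37 C in HBSS/10 mM HEPES/0.1% Tween-20 buffer; beta-galactosidase complementation read by luminescence after 1 h at ambient temperature. Dopamine 57 uM final (EC100) as control.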
CtBP-E1A blk: CtBP/E1A binding inhibition; AlphaScreen GST-E1A/His-CtBP binding, 1536-well; active compounds read low; control for the full effect not named in the record; activity change, % (no concentration beside the values); 0.49% of 340,000 active; AID 651724; in the data active means activity change below about -65%; inconclusive means about -30% to -65%; inactive means above about -30%; also: % is scaled to controls: 0 for no effect and ±100 for the full control effect
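GST-E1A and His-tagged CtBP (125 nM each as 5X stock) were preincubated with pin-transferred compound for 2 h at 37 °C in the dark, then glutathione donor and nickel acceptor beads were added for 1 h before AlphaScreen reading.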
TRPML1 agonist: activates the human TRPML1 channel. Q9GZU1. TRPML1-expressing cells, Ca2+ dye fluorescence, FDSS; host cell line not named in the record; reference of the full effect not given here. activation, % (no concentration beside the values). AID 624414. 0.12% of 410,000 active; in the data active = activation above about 50%; inconclusive = about 30% to 50%; inactive = below about 30%; also: 0% is about no effect; the text of the record puts the active cut at 80%
Target sequence (Q9GZU1 whole entry, looked up): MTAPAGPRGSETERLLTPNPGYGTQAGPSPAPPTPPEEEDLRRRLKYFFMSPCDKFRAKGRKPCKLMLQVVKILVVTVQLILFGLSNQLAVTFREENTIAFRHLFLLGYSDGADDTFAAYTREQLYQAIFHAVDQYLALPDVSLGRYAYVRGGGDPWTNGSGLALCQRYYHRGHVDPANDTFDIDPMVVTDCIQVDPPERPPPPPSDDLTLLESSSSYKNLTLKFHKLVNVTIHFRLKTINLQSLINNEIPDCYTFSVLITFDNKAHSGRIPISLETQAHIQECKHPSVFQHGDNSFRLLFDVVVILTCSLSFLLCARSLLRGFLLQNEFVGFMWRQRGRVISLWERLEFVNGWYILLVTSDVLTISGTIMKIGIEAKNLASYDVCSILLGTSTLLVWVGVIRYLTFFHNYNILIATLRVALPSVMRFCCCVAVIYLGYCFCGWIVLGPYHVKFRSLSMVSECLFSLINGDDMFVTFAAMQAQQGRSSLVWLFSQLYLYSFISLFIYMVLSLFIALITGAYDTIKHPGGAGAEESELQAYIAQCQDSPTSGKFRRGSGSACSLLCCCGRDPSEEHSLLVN
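Tet-induced TRPML1-DL cells, 1,500 per well, cultured overnight, were loaded with a no-wash Ca2+ dye for 45–90 min. Calcium fluorescence was recorded on the FDSS for 110 s after compound addition, before the EC80 agonist (4 uM 54-4) was added.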
D2 potentiator: positive allosteric modulators of human D2 dopamine receptor; P14416; DiscoveRx D2 beta-arrestin cells, luminescence, 90 min; 100% = 57 uM dopamine signal; 0.23% of 360,000 active; potentiation, % (test concentration not listed); active = potentiation of 50% or more; inconclusive = 30% to 50%; inactive = 30% or less;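 also: compound concentration not given in the record; tested on top of an EC20 dose of dopamine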
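PathHunter beta-arrestin assay in DiscoveRx D2 cells. Compounds were added with an EC20 of dopamine (50 nM final) for 90 min at 37 deg C. Luminescence was read 1 h after detection reagent, with 57 uM dopamine as the EC100 control.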
Active calls of the source: *; u = inconclusive; x = not tested or not shown; & = joins results of further samples; [ ] = dose if it differs, or a comment. No enrichment for hits; 1.3% or so of the library scored in one or more.

SMILES,PINK1 expr mod,Six1-Eya2 inh,D2 ag,CtBP-E1A blk,TRPML1 agonist,D2 potentiator
Cc1cc(C(=O)COc2cc(F)ccc2[N+](=O)[O-])c(C)n1CC1CCCO1 (stereo not given),-1.1%,-16,3.0,-2,-0.1,-3
Cc1cc(-c2ccccc2)nc(N(C)NC(=O)c2c(F)cccc2F)c1S(C)(=O)=O,1.0%,-3,-3.5,0,4.7,0
CC(C)CN(C(=O)CSc1nnc(-c2cccs2)n1N)c1c(N)n(Cc2ccccc2)c(=O)[nH]c1=O,1.0%,-1,2.1,0,-0.1,2
Cc1nc([N+](=O)[O-])c(N2CCN(C)CC2)n1Cc1ccccc1,-1.5%,3,-2.5,-2,3.0,-11
O=S(=O)(Oc1ccccc1C(=S)N1CCOCC1)c1ccc(Cl)cc1,-2.2%,0,-6.3,0,0.0,-5
CCOC(=O)c1c(NC(=S)Nc2ccc(Cl)cc2)sc(C)c1C,1.1%,7,-5.3,10,-0.1,-16
CCOC(=O)N1CCC(NC(=O)c2oc3c(F)cccc3c2C)CC1,-0.6%,1,0.6,-3,0.0,-4
CCCCn1nc(C(=O)N(C)CC(=O)Nc2ccc(F)c(F)c2F)ccc1=O,-1.7%,1,-4.8,-4,0.4,0

Continuation:
SMILES,PINK1 expr mod,Six1-Eya2 inh,D2 ag,CtBP-E1A blk,TRPML1 agonist,D2 potentiator
c1ccc(C2=Nn3c(nnc3-c3ccncc3)SC2)cc1,-2.3%,-15,-5.6,-3,-0.1,-9
CCN1C(=O)N/C(=C/c2ccc(Sc3ccc(C)cc3)o2)C1=O,11%,13,-4.2,19,-0.5,12
O=S(=O)(c1ccc(Br)cc1)N1CCCC1,2.9%,6,4.0,x,-1.1,-3
O=C(NN=Cc1c[nH]c2ccccc12)NN=Cc1c[nH]c2ccccc12,3.0%,u,-0.3,-9,-0.5,-11
COc1cc(NC(=O)CN2C(=O)C(C)N(c3ccc(C)cc3)C2=O)cc(OC)c1 (stereo not given),4.0%,-6,0.5,-19,0.0,-7
COC(=O)/C=c1/s/c(=C(\C#N)C(=O)NCc2ccco2)n(-c2ccccc2)c1=O,3.2%,-13,-0.9,-15,0.0,4
C=CCNC(=O)COC(=O)COc1ccc(Cl)cc1C,0.4%,5,-1.6,-4,0.5,5
c1ccc2c(CNc3ccc(CNc4ncn[nH]4)cc3)cccc2c1,0.1%,-23,2.5,-12,-1.4,-19

Compound profiles (already shown):
Entry for `C=CCNC(=O)COC(=O)COc1ccc(Cl)cc1C` → PINK1 expr mod: 0.4%; Six1-Eya2 inh: 5; D2 ag: -1.6; CtBP-E1A blk: -4; TRPML1 agonist: 0.5; D2 potentiator: 5
Entry for `COc1cc(NC(=O)CN2C(=O)C(C)N(c3ccc(C)cc3)C2=O)cc(OC)c1` (stereo not given) → PINK1 expr mod: 4.0%; Six1-Eya2 inh: -6; D2 ag: 0.5; CtBP-E1A blk: -19; TRPML1 agonist: 0.0; D2 potentiator: -7
Entry for `O=C(NN=Cc1c[nH]c2ccccc12)NN=Cc1c[nH]c2ccccc12` → PINK1 expr mod: 3.0%; Six1-Eya2 inh: u; D2 ag: -0.3; CtBP-E1A blk: -9; TRPML1 agonist: -0.5; D2 potentiator: -11

(continued)
SMILES,PINK1 expr mod,Six1-Eya2 inh,D2 ag,CtBP-E1A blk,TRPML1 agonist,D2 potentiator
O=C(NCCCn1ccnc1)c1cc2nc(-c3ccc(Br)cc3)cc(C(F)(F)F)n2n1,-0.5%,-16,-0.5,-25,-0.5,6
CC(C)c1nc(N2CCOCC2)c(C#N)c2c1CCCC2,-1.3%,10,-1.5,5,0.4,0
Cn1c(=O)c2c(ncn2CC(=O)N2CCc3ccccc3C2)n(C)c1=O,1.0%,-5,-1.6,-6,0.1,-11
COc1ccc(CCNC(=O)C2CCCN(S(=O)(=O)N3CC(C)CC(C)C3)C2)cc1OC (stereo not given),-2.0%,-2,-5.0,-3,0.6,-12
Cc1cccc(CNC(=O)CCn2ccc3cc(S(=O)(=O)N4CCCC4)ccc32)c1,3.2%&-1.7%,-1,-0.2,x,1.2&-0.1,-9
N#CC1(NC(=O)COC(=O)c2nccnc2N)CCCCC1,1.9%,-5,0.3,-1,-0.2,-11
C=CCNC(=O)CN1CCC(O)(c2ccccc2)CC1,-3.5%[38.3 µM],3,0.5,8,-0.1,-23
O=C(CNC(=O)OCc1ccccc1)NC1CCCCCC1,-0.7%,9,3.9,11,0.1,0

Remaining list, next part.
SMILES,PINK1 expr mod,Six1-Eya2 inh,D2 ag,CtBP-E1A blk,TRPML1 agonist,D2 potentiator
CCn1cc(C(=O)NCc2cccs2)c(=O)c2cc(S(=O)(=O)N3CCOCC3)ccc21,0.0%,1,-3.1,-6,1.4,-8
O=C(CN1C(=O)C(c2ccc(F)cc2)=NC12CCCC2)Nc1ccc(F)cc1,0.5%,4,-3.2,1,0.2,-4
Cc1nn2c(N3CCOCC3)cc(C(C)(C)C)nc2c1-c1ccc(Cl)cc1,3.9%,3,-2.0,11,0.6,5
COc1ccc(CNC(=O)C(C)c2ccc([N+](=O)[O-])cc2)cc1 (stereo not given),1.7%,1,5.5,0,0.7,-3
Cc1ccc(NCCC(=O)c2cccc([N+](=O)[O-])c2)cc1,0.6%[38.3 µM],u,-4.2,u,-0.1,-5
O=C(c1ccco1)N1CCN(C(=O)c2ccc(CS(=O)c3cccc(Cl)c3)o2)CC1 (stereo not given),-0.2%,0,-2.9,2,-0.1,0
COc1ccc(-n2nc(C(=O)NCC(=O)N3CCCCCC3)c3ccccc3c2=O)c(OC)c1,-1.2%,8,-0.7,7,-1.6,-7
COc1ccc2c(C)c(C(=O)N3CCN(Cc4ccccc4)CC3)oc2c1,-0.5%,-13,-7.5,-29,-0.3,-5

More entries
SMILES,PINK1 expr mod,Six1-Eya2 inh,D2 ag,CtBP-E1A blk,TRPML1 agonist,D2 potentiator
CC(CN1CCC(n2nccc2NC(=O)C2CCCC2)CC1)c1ccccc1 (stereo not given),-2.8%,1,-3.4,2,0.1,-15
CC(=O)N(Cc1ccc(Br)cc1)c1ccccc1C(=O)O,-1.0%,9,-5.2,x,-0.6,-9
CN(C)CCNC(=O)C(=O)Nc1cc2c3c(c1)CCC(=O)N3CCC2,1.1%,-2,5.0,x,-0.7,2
CCCCCOc1ccccc1C(=O)NCCCC(=O)O,-1.9%,8,1.7,-7,-0.4,5
COc1ccc(/C=C2\NC(=O)C(C=NCc3ccccc3)=C2O)cc1,11%,3,0.3,1,1.3,5
Cc1ccc2c(CNCc3ccco3)cc(=O)oc2c1,-0.4%[38.3 µM],-1,0.2,-1,-0.4,-10
CC(=O)Nc1ccc(NC(=O)CSc2ccc(C)cc2)cc1,1.1%,5,-0.5,1,-0.7,9
CCN(CC(=O)Nc1ccc(N2CCOCC2)cc1)CC(=O)NC(C)(C)C,3.7%,-1,0.9,2,0.2,-5

The results go on:
SMILES,PINK1 expr mod,Six1-Eya2 inh,D2 ag,CtBP-E1A blk,TRPML1 agonist,D2 potentiator
O=C1CC2(CCCCC2)Oc2ccccc21,3.0%,23,-3.3,12,1.2,-5
O=C(Nc1ccc2c(c1)OCO2)c1cnccn1,1.7%,1,0.1,12,0.1,4
CCN(CC)CCCNc1nc(N)c([N+](=O)[O-])c(NCCO)n1,-1.3%,4,6.0,x,-0.1,-1
C#CC[N+](CC)(CC)CC#Cc1cccc(Cl)c1,-2.1%,7,-3.6,9,-0.7,-13
O=C(CCN1C(=O)C2C3CCC(C3)C2C1=O)Nc1ccc(F)cc1 (stereo not given),-0.4%,6,-0.8,-12,0.8,-4
Cc1[nH]c(=O)[nH]c(=O)c1NC(=O)c1ccccc1[N+](=O)[O-],-0.6%,4,-3.1,4,-0.5,1
Cn1c(=O)cc(SCC(=O)Nc2cccnc2)c2ccccc21,0.7%,-7,-5.3,-7,0.2,-2
CCC(=O)c1ccc(OCC(=O)N(CC)CC2COc3ccccc3O2)cc1 (stereo not given),2.6%,-1,-3.1,-1,-1.2,-9

Further results follow.
SMILES,PINK1 expr mod,Six1-Eya2 inh,D2 ag,CtBP-E1A blk,TRPML1 agonist,D2 potentiator
CCOC(=O)C1=CN(Cc2ccco2)S(=O)(=O)N(C)C1c1ccc(C(F)(F)F)cc1 (stereo not given),-1.0%,-2,0.1,-1,0.7,x
O=C(NCC(c1ccco1)N1CCOCC1)c1ccccc1 (stereo not given),-1.3%,4,6.3,-1,-0.1,-11
Clc1cccc(Oc2cnc3ccccc3n2)c1,-3.1%,34,-1.4,24,1.1,-2
CCc1nnc(N/N=C/c2ccccc2F)n1N,3.4%,7,u,0,-0.7,-29
CC(C)c1ccc(NC2=NCC(=O)N2Cc2cccs2)cc1,2.6%,-12,2.4,-4,3.0,0
CSc1nc(N)c(C(=O)NC2CCCCC2)s1,2.0%,-4,4.5,x,-0.4,3
O=CN/C=C/c1cccc(O)c1,-5.2%,-7,-2.5,2,-0.3,-3
Cc1ccc(-c2nc(CS(=O)CC(=O)N3CCN(c4ccc(F)cc4)CC3)c(C)o2)cc1 (stereo not given),-0.6%&-0.9%,-11,-1.5,x,3.3&0.5,-7

Other compounds follow.
SMILES,PINK1 expr mod,Six1-Eya2 inh,D2 ag,CtBP-E1A blk,TRPML1 agonist,D2 potentiator
Cc1cc(Cl)c(S(=O)(=O)Nc2ccc3c(c2)OCO3)cc1OCC(=O)NC1CCCCC1,x,2,1.2,4,0.0,-6
O=C(N=Nc1c(O)[nH]c2ccc(Br)cc12)c1cc(-c2cccs2)nc2ccccc12,0.0%,3,-1.1,4,0.9,-1
CCOc1ccc(NC(=O)CCC(=O)NNC(=O)c2ccco2)cc1,-0.7%,7,0.7,-17,-0.4,-8
COC(=O)C(C)Oc1ccc(-c2nccc(-c3ccccn3)n2)cc1 (stereo not given),0.8%,2,0.0,13,1.6,-3
Cn1c(CO)cnc1S(=O)(=O)Cc1c(Cl)cccc1Cl,-0.4%,2,9.8,0,0.6,-8
O=C(CNC(=O)c1ccc(F)cc1)c1ccccc1,2.8%,-3,5.6,x,x,11
N#CCc1c(C#N)c(N)nc(N2CCN(C=O)CC2)c1C#N,0.2%,-15,-3.9,x,2.2,-25
Cc1ccc(C)c(OCCn2cc(/C=C(/C#N)C(=O)NCC3CCCO3)c3ccccc32)c1 (stereo not given),2.7%,-5,1.3,-3,2.0,-2
COCC(C)Nc1ncnc2c1cnn2-c1ccc(Cl)cc1 (stereo not given),2.4%,0,-0.6,0,-0.8,-8
CC1CN(C(=O)c2ccc(Cl)c(S(=O)(=O)NCc3ccco3)c2)CC(C)O1 (stereo not given),0.0%,2,-3.5,5,0.5,-3
